Source: PubChem (several laboratories)
Mtb hypoxia rep: Mtb hypoxia fluorescent reporter inhibition | AID 1159583 | M. tuberculosis hypoxia-regulated fluorescent reporter, fluorescence | actives 0.1% (n = 300,000) | fluorescence inhibition, % (test concentration not listed);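 active = 35 to 45% if threefold the growth effect, above 45% if 1.5-fold the growth effect; inactive = the rest, general growth blockers included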;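 note: wells of about 50 µL received 100 nL stock; 0% = vehicle wells and 100% = reference inhibitor wells; whole bacteria with a GFP reporter of the hypoxia response; strong numbers were not always called active; many hits fall short of the cut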
ugtP null kill: kills S. aureus RN4220 lacking UgtP; actives 0.54% (n = 330,000); growth inhibition, % (test concentration not listed); S. aureus RN4220 ugtP deletion, OD600 growth, 16 h; some inactives read as strong as hits;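 active = z-score under -3 and OD600 up to 0.15 on both plates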;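 note: plate controls were untreated wells for no effect and antibiotic for full effect; wells of about 80 µL received 100 nL stock; the first replicate is given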
PrP UTR inh: inhibition of PrP 5' UTR reporter expression; inhibition, % (no concentration beside the values); cell-based PrP 5' UTR mRNA reporter, plate reader; actives 0.35% (n = 340,000);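 active = every replicate at 50% or more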;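 note: 0 = median of the neutral control wells; tested in H4 reporter cells; numbers are from one replicate; inactives centre near -14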
BJeLR viability: BJeLR cell viability loss; BJeLR (HRASV12) viability, CellTiter-Glo ATP luminescence, 48 h; reference of the scale not given here; inhibition, % (concentration not given with the values); actives 0.17% (n = 300,000); AID 1554;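 active = replicate mean above 50%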;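 note: 50 nL library stock added to about 25 µL; numbers are from one replicate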
RN4220 kill: kills Staphylococcus aureus RN4220; inhibition, % (test concentration not listed); S. aureus RN4220 growth, OD600, 16 h; actives 0.33% (n = 330,000);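 active = z-score of -3 or lower and OD600 up to 0.18 on both plates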;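 note: plate controls were untreated cells for no effect and reference antibiotic for full effect; stock transfer was 100 nL into about 80 µL; one replicate is shown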
Autofluor counter: counter-screen for toxin protease inhibitors: compound fluorescence; compound autofluorescence counterscreen, microsphere flow cytometry; stronger effect = higher value; fluorescence intensity (no concentration beside the values); actives 3.1% (n = 360,000);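 active = at least 3 SD above the mean of all compounds, about 16000 in these data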;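 note: 100 nL of 1 mM stock went into each well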
Mtb hypoxia rep growth: also measured in Mtb hypoxia rep; calls as there; growth inhibition, %; measured here: M. tuberculosis growth (absorbance);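 0% = vehicle and 100% = reference antibiotic; read after six days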
The depositor's hits bear a star; · = no result given.

SMILES | Mtb hypoxia rep | Mtb hypoxia rep growth | ugtP null kill | PrP UTR inh | BJeLR viability | RN4220 kill | Autofluor counter
Cc1ccc(CNC(=O)CC2C(=O)Nc3c2c(=O)n(C)c(=O)n3Cc2ccccc2)cc1 (centres undefined) | · | · | -3 | -8 | -1 | -3.9 | 4983
O=C(CCSc1ccccc1Cl)NNC(=O)c1ccncc1 | 19 | 1 | 6 | -6 | 1 | -0.7 | 6553
COC(=O)c1sc2nc(SCc3ccccc3C#N)n(N)c(=O)c2c1C | 10 | 7 | 10 | -11 | -6 | 6.2 | 9850
COc1cccc(NC(=O)C2CC(=O)N(Cc3ccc(C)cc3)C2)c1 (centres undefined) | 9 | -7 | 12 | -11 | 8 | 5.9 | 4679
O=C(N/N=C/c1ccc(N2CCOCC2)cc1)C1COc2ccccc2O1 (centres undefined) | · | · | · | -56 | 8 | · | 4533
Cc1ccc(N2C(=O)SC(Cc3ccccc3)C2=O)cc1 (centres undefined) | 10 | -1 | 15 | -8 | 22 | 5.1 | 5843
Cc1nn(Cc2ccccc2)c(C)c1C(=O)NC1CCCc2ccccc21 (centres undefined) | 7 | 6 | 1 | 16 | 7 | 10 | 7567
CCOC(=O)N1CCN(C(=O)c2cc(-n3cnnc3)ccc2Cl)CC1 | · | · | 5 | -2 | -1 | 6.1 | 3468
CNC(=O)c1cc(Nc2nnc(-c3ccc(O)cc3)c3ccccc23)ccc1OC | 8 | 9 | 2 | -8 | -1 | 0.9 | 3983
CCn1c(Cc2ccccc2)nnc1SCc1cccc(C(=O)O)c1 | 11 | 2 | -1 | -10 | 11 | 3.2 | 2333
CN1CCN(CC(=O)Nc2ccccc2Oc2ccccc2)CC1 | 3 | 11 | 5 | -47 | 3 | 2.7 | 4820
O=C(O)c1cccnc1SCc1cn2cc(Br)ccc2n1 | 2 | 4 | 4 | -9 | -1 | 4.6 | 4842
Cn1c(C(=O)Nc2ccc3c(c2)OCO3)cc2c(=O)n(C)c3ccccc3c21 | · | · | 2 | -17 | 8 | 1.2 | 5868
CCn1c(SCc2ccccc2)nc2c1c(=O)[nH]c(=O)n2C | 8 | 9 | 25 | -12 | 2 | 2.1 | 4367
CC(=O)c1ccc(NC(=O)C2CCCN(S(=O)(=O)c3cccc4nonc34)C2)cc1 (centres undefined) | 7 | -4 | 9 | -3 | -5 | 2.8 | 5466
COc1ccc([N+](=O)[O-])cc1NC(=O)CSc1nncn1-c1ccccc1 | 14 | 3 | 6 | -11 | 2 | 2.1 | 1902
O=C(N1CCOCC1)N1CCN(S(=O)(=O)c2ccc(F)cc2)CC1 | -2 | 3 | 4 | 2 | -9 | 2.3 | 2885
O=C1C=C(c2ccc(C(=O)O)cc2)CC(c2ccc(F)cc2)C1 (centres undefined) | 9 | 10 | -2 | · | · | 1.9 | ·
O=C(Nc1cccn2ncnc12)C(F)(F)F | 1 | 6 | -4 | -10 | 8 | -2.4 | 3476
C/C(=N\Nc1nncc2ccccc12)c1ccc(OCC(=O)N(C)C)cc1 | · | · | · | -17 | 0 | · | 3818
Cc1cccc(C)c1NC1=NC(C)(C)N=C(N)N1 | · | · | 3 | 1 | 1 | 0.5 | 3329
COc1ccc(S(=O)(=O)N2CCCCCC2)cc1C(=O)N(C)CC(=O)Nc1c(Cl)cccc1Cl | 8 | 9 | 2 | -15 | 0 | 1.8 | 5169
CC(C)c1ccc(C=NNC(=O)CCNC(=O)c2ccccc2)cc1 | 13 | 8 | -8 | · | · | 0.3 | ·
CC(C)Cn1c(N)c(C(=O)COC(=O)c2ccncc2)c(=O)n(C)c1=O | · | · | 17 | -2 | 0 | 2.6 | 5401

Four entries already listed, arranged by molecular weight, ascending.
SMILES | Mtb hypoxia rep | Mtb hypoxia rep growth | ugtP null kill | PrP UTR inh | BJeLR viability | RN4220 kill | Autofluor counter
CCn1c(SCc2ccccc2)nc2c1c(=O)[nH]c(=O)n2C | 8 | 9 | 25 | -12 | 2 | 2.1 | 4367
CC(C)c1ccc(C=NNC(=O)CCNC(=O)c2ccccc2)cc1 | 13 | 8 | -8 | · | · | 0.3 | ·
CC(C)Cn1c(N)c(C(=O)COC(=O)c2ccncc2)c(=O)n(C)c1=O | · | · | 17 | -2 | 0 | 2.6 | 5401
CC(=O)c1ccc(NC(=O)C2CCCN(S(=O)(=O)c3cccc4nonc34)C2)cc1 (centres undefined) | 7 | -4 | 9 | -3 | -5 | 2.8 | 5466

Back to the main list; the 5 compounds before the break are reprinted first.
SMILES | Mtb hypoxia rep | Mtb hypoxia rep growth | ugtP null kill | PrP UTR inh | BJeLR viability | RN4220 kill | Autofluor counter
C/C(=N\Nc1nncc2ccccc12)c1ccc(OCC(=O)N(C)C)cc1 | · | · | · | -17 | 0 | · | 3818
Cc1cccc(C)c1NC1=NC(C)(C)N=C(N)N1 | · | · | 3 | 1 | 1 | 0.5 | 3329
COc1ccc(S(=O)(=O)N2CCCCCC2)cc1C(=O)N(C)CC(=O)Nc1c(Cl)cccc1Cl | 8 | 9 | 2 | -15 | 0 | 1.8 | 5169
CC(C)c1ccc(C=NNC(=O)CCNC(=O)c2ccccc2)cc1 | 13 | 8 | -8 | · | · | 0.3 | ·
CC(C)Cn1c(N)c(C(=O)COC(=O)c2ccncc2)c(=O)n(C)c1=O | · | · | 17 | -2 | 0 | 2.6 | 5401
Nc1ccc(C(=O)N/N=C\C=C\c2ccc([N+](=O)[O-])cc2)cc1 | · | · | · | -9 | 3 | · | 3344
OCCN(Cc1ccccc1)C(=S)NC1CCCCC1 | 8 | 3 | 0 | -39 | 0 | 2.9 | 4931
Cc1cc(C)n(CC(=O)NCc2cc(-c3nn(C)c(=O)c4ccccc34)ccc2C)n1 | 9 | 7 | -4 | -3 | -7 | -10.0 | 3481
O=C(N/N=C/c1cc(Br)c(Br)o1)c1cc2ccccc2o1 | · | · | · | -20 | -4 | · | 4630
CCOC(=O)/C=C1/SCC(=O)N1CC(=O)c1ccc[nH]1 | 6 | 10 | -3 | -12 | · | 10 | 4070
Cc1csc(CN(C)C(=O)c2cn(Cc3cccc4ccccc34)nn2)n1 | 5 | 4 | 5 | -57 | -11 | 3.7 | 5679
CC(C)Cc1nc(N2CCN(C(=O)c3ccco3)CC2)c(C#N)c2c1CCCC2 | 4 | 4 | 20 | -4 | -1 | -4.6 | 5589
O=C(O)CN1C(=O)NC2(CCCc3ccccc32)C1=O (centres undefined) | -2 | 0 | 7 | -18 | -2 | -0.3 | 3972
Cc1c(-n2cc(C(=O)c3ccccc3O)cc(C#N)c2=O)c(=O)n(-c2ccccc2)n1C | -1 | 6 | -6 | -18 | -12 | 3.4 | 10179
CN1C(=O)CSc2ccc(NC(=O)NCc3ccco3)cc21 | 3 | -1 | 6 | -11 | -5 | -1.0 | 9146
Cc1ccc(NC(=O)c2ccc(NCc3ccc(F)cc3)nc2)cc1 | 6 | 5 | 1 | -26 | 5 | 1.0 | 4370
CCOC(=O)c1[nH]c2cc(OC)c(OC)cc2c1NC(=O)CCN1CCSCC1 | 8 | 9 | -1 | -44 | 6 | 1.7 | 3691

Look-ups from the entries so far.
For Autofluor counter, `O=C(O)CN1C(=O)NC2(CCCc3ccccc32)C1=O` (centres undefined) is entered as 3972
For BJeLR viability, `C/C(=N\Nc1nncc2ccccc12)c1ccc(OCC(=O)N(C)C)cc1` is entered as 0
For ugtP null kill, `CC(C)c1ccc(C=NNC(=O)CCNC(=O)c2ccccc2)cc1` is entered as -8
For ugtP null kill, `Cc1cccc(C)c1NC1=NC(C)(C)N=C(N)N1` is entered as 3

Carrying on.
SMILES | Mtb hypoxia rep | Mtb hypoxia rep growth | ugtP null kill | PrP UTR inh | BJeLR viability | RN4220 kill | Autofluor counter
CCn1cc(CN2CCCC(C(=O)c3ccc(-c4ccccc4)c(F)c3)C2)cn1 (centres undefined) | 16 | 11 | 5 | -10 | 16 | 0.9 | 4704
Cc1onc(-c2c(Cl)cccc2Cl)c1C(=O)N1CCc2ccccc2C1 | 3 | 6 | 1 | -1 | 6 | -11 | 3308
COc1cc(C(=O)NN=Cc2ccc(OC(=O)c3cccc(C)c3)c(OC)c2)ccc1O | 14 | 11 | 2 | · | · | -0.5 | ·
CCCCn1c(N)c(N(Cc2ccccc2OC)C(=O)CSCC(=O)Nc2ccc(C)cc2)c(=O)[nH]c1=O | 1 | 6 | 4 | -9 | · | 5.1 | 4130
COC(=O)c1ccc(COc2ccccc2/C=N/NS(=O)(=O)c2ccccc2)cc1 | · | · | · | -27 | 29 | · | 10394
O=C(c1ccccc1)c1c[nH]c2cc3c(cc2c1=O)OCCO3 | -3 | -2 | -10 | -18 | 2 | -2.0 | 5699
Cc1cc(Br)ccc1NC(=O)CSCc1c(C)noc1C | 5 | 3 | -1 | -38 | · | 5.5 | 7740
COc1ccccc1CCC(=O)Nc1cccc(S(=O)(=O)N2CCOCC2)c1 | · | · | · | -21 | 4 | · | 4493
CC(C)c1cc(N=NC(N)=O)cc(C(C)C)c1O | 20 | -1 | 3 | -3 | 0 | 8.9 | 2551
COc1cccc(C(=O)N2CCN(c3ncccn3)CC2)c1 | 7 | 6 | 0 | 1 | -13 | 3.6 | 3288
N=c1n(CCCOc2ccc(Br)cc2)c2ccccc2n1CC(N)=O | 4 | 11 | -3 | · | 7 | 7.2 | 4937
COCCCN(C(=O)CCOc1ccccc1C)c1c(N)n(Cc2ccccc2)c(=O)[nH]c1=O | 8 | 5 | -1 | -15 | 7 | 6.7 | ·
Nc1nnnn1CC(=O)NN=Cc1cc([N+](=O)[O-])ccc1Cl | 2 | 6 | 1 | · | · | 2.2 | ·
C=CCOc1ccc(/C=N/n2nnnc2N)cc1OC | · | · | · | -17 | -5 | · | 4405
CCOC(=O)C1CCN(c2ccc(C(N)=O)cc2[N+](=O)[O-])CC1 | 15 | 7 | 7 | -14 | -4 | 5.7 | 2046
CN(Cc1ccccc1)Cc1nc2c(c(=O)n(C)c(=O)n2C)n1Cc1ccc(F)cc1 | 8 | 5 | 4 | -34 | 5 | -7.2 | 23112*
COc1cc(Cl)c(NS(=O)(=O)c2c(C(=O)N3CCCC3)c(C)n(C)c2C)c(OC)c1 | -2 | 3 | -1 | -10 | -1 | 4.3 | 5504
CN(C(=O)c1cc(C(=O)N(C)c2ccccc2)cc([N+](=O)[O-])c1)c1ccccc1 | 0 | -1 | 4 | -19 | -6 | 3.7 | 4670
CCCCCCOc1ccc(C(CC(=O)O)C(N)=O)cc1 (centres undefined) | 12 | 9 | 1 | -22 | -2 | 6.2 | 2613
Cc1ccc2nc(-c3ccc(-c4ccccn4)s3)cn2c1 | 6 | 2 | -12 | -126 | 0 | 7.6 | 5965
CC(O)(C#CCN1CCOCC1)c1ccccc1 (centres undefined) | -2 | 3 | -2 | -20 | 1 | 9.2 | 4818
Cc1nn(C)c(C)c1C=NNC(=O)CCn1cc([N+](=O)[O-])cn1 | 4 | 8 | 6 | · | · | 2.5 | ·
O=C(C[n+]1cccc(NC(=O)c2ccccc2)c1)c1ccc(NC(=O)c2ccccc2)cc1 | · | · | · | -12 | 1 | · | 3045
O=[N+]([O-])c1ccc(NC2CCCC2)c2ccncc12 | 10 | 10 | -1 | 3 | -3 | 0.5 | 3801
Cc1ccc(NC(=O)CSc2nnc(-c3cccnc3)n2-c2ccc(C)cc2)cc1 | 9 | 3 | 6 | -9 | -7 | -5.1 | 2880
O=C(Nc1ccccc1)C1=C[C@@H](c2ccc(Br)cc2)C[C@@H](OCCCCO)O1 | · | · | · | -41 | -9 | · | 2945
CCCCCc1ccc(CC(=O)N2CCOCC2)cc1 | 3 | 11 | -1 | -25 | -7 | 7.1 | 4435
COc1ccccc1C(=O)OCC(=O)Nc1cccc(S(=O)(=O)N2CCCC2)c1 | -11 | -22 | 8 | -14 | · | 6.7 | ·
CCOc1cc(C=NNC(=O)OC(C)(C)C)ccc1OC(=O)c1ccco1 | 11 | 7 | -1 | · | · | 4.6 | ·
CC(=O)Nc1cccc(C(=O)OCc2ccc(C(=O)Oc3ccc(Cl)cc3)cc2)c1 | 13 | 8 | -22 | -17 | 15 | 7.6 | 9974
CCCCCC(=O)Nc1cccc(C2=NOC3(C2)C[C@@H](C(N)=O)N(C(=O)c2ccc(Cl)cc2)C3)c1 (some centres undefined) | · | · | · | -2 | -5 | · | 4143
Cc1csc(NC(=O)c2ccc(S(=O)(=O)N3CCN(C)CC3)cc2)n1 | 0 | -4 | 0 | -14 | -1 | 0.8 | 5708
